Screens: PubChem BioAssay, National Center for Advancing Translational Sciences (NCATS)
HPGD block – qHTS Assay for Inhibitors of HPGD (15-Hydroxyprostaglandin Dehydrogenase) | AID 894, 2007 | purified HPGD, NADH fluorescence kinetic, PGE2 substrate | 15-hydroxyprostaglandin dehydrogenase [NAD(+)] (Homo sapiens), P15428 | 150,000 compounds, 4.3% hits | Potency, µM, without a hit: at the top dose activity change, negative = inhibition, actives largely listed as inhibitors; active = well fitted inhibition curve with a large enough effect (not every such curve was filed as active); inconclusive = small, poorly fitted or top-dose-only effect, or another doubt; inactive = no such curve, though single readings can be large or run the other way;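 further: top concentration of the series not given in the record; plate controls included wells without enzyme; inactives centre near -10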
Target sequence (P15428 whole entry, looked up): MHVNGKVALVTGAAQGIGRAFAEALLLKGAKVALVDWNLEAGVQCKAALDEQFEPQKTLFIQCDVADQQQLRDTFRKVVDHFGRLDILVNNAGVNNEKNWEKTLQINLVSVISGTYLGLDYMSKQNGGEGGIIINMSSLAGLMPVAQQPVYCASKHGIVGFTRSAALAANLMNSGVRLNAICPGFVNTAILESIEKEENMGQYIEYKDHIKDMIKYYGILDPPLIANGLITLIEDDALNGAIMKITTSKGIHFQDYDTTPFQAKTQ
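NADH formation kinetics: reaction with 30 uM PGE2 and 1 mM NAD+ (final), 20 nM enzyme, Tris-HCl pH 8 with Tween 20, after 15 min compound preincubation at room temperature. Fluorescence change, last versus first of five reads.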
The depositor's hits bear a star. On the % scale 0 is the no-effect control and ±100 the full control effect; potency means the concentration at half of the fitted maximal effect. An excerpt; the hit share may differ from the screen's.

For CCOC(=O)c1cnc(SCC(=O)c2ccc3c(c2)OCCO3)nc1N the results were HPGD block -16%.
Screening COc1ccc2c(CC(=O)OCC(=O)c3ccc(F)cc3)coc2c1 returned HPGD block -6%.
`COc1ccc(NC(=S)NC(NC(C)=O)C(Cl)(Cl)Cl)c([N+](=O)[O-])c1` (stereo not given) gave HPGD block -13%.
Screening CSc1ccccc1-c1nnc(-c2ccc(Cl)c(Cl)c2)o1 returned HPGD block 3%.
`COC(=O)c1c(-c2ccc(C)cc2)csc1N` gave HPGD block -17%.
CS(=O)(=O)c1ccc(C(=O)OCC(=O)NC23CC4CC(CC(C4)C2)C3)cc1[N+](=O)[O-] was read as HPGD block 3%.
`C=CCn1c(SCC(=O)Nc2nc(C)cs2)nnc1C(NC(=O)c1ccccc1)C(C)C` (stereo not given) gave HPGD block -2%.
For O=C(COC(=O)c1c(Cl)cccc1Cl)Nc1ccccc1Br the results were HPGD block -19%.
Screening O=C(NC1CC2CCCC(C1)N2C(=O)NCc1ccccc1)C1CC1 (stereo not given) returned HPGD block -10%.
Cc1onc(-c2ccccc2Cl)c1C(=O)Nc1cnn(Cc2ccccc2)c1 was read as HPGD block -12%.
Screening Cc1cccc(NC(=O)CCC(=O)N/N=C/c2ccco2)c1C returned HPGD block -12%.
For Cc1[nH]c2ccc(-c3n[nH]c(=S)n3C)cc2c1C the results were HPGD block inconclusive.
`NC(=O)CN1CCOCCN(CC(N)=O)CCOCC1` gave HPGD block -6%.
Screening NS(=O)(=O)c1ccc(NC(=O)CSc2ccccn2)cc1 returned HPGD block -29%.
Screening COc1ccc(/C=N/OCC(=O)N2CC3(C)CC2CC(C)(C)C3)cc1OC (stereo not given) returned HPGD block 0%.
CC1CCN(S(=O)(=O)c2ccc3c(c2)c(=O)c(C(=O)NCc2ccccc2Cl)cn3C)CC1 was read as HPGD block -10%.
NCC(c1ccccc1)(c1ccccc1)c1ccccc1 was read as HPGD block -1%.
Screening CCC(CC)C(=O)Nc1cc(=O)n(C)c(=O)n1C returned HPGD block -5%.
`CC(C)(C)n1nnnc1CN(Cc1ccc(F)cc1)Cc1ccco1` gave HPGD block -1%.
`Cc1n[nH]c(=S)n1/N=C/c1ccccc1` gave HPGD block inconclusive.
`CC1CCc2cc(F)ccc2N1C(=O)c1ccc2c(c1)OCO2` (stereo not given) gave HPGD block -1%.
For Cc1nc(NS(=O)(=O)c2cccs2)c2c3c(sc2n1)CCC3 the results were HPGD block -17%.
CCC(C)(C)NC(=O)C(c1ccco1)N(C(=O)Cn1nnc2ccccc21)c1ccc2c(c1)OCO2 (stereo not given) was read as HPGD block -10%.
For COc1ccc(NC(=O)NCCN2CCc3ccccc3C2)cc1 the results were HPGD block 0%.
CC[C@@]12C=C(/C=C/c3ccccc3)[C@](CC)(C1)[C@H](c1ccccc1)CC2=O was read as HPGD block -3%.
CCn1cc(C(=O)NCc2cccc(F)c2)c(=O)c2cc(F)c(N3CCN(C(=O)c4ccco4)CC3)cc21 was read as HPGD block inconclusive.
Screening Cc1ccc(CSc2nnnn2C)cc1 returned HPGD block -8%.
`NC(=O)C1(N2CCCCC2)CCN(C(=O)c2ccc(C#CC3(O)CCCCC3)cc2)CC1` gave HPGD block 0%.
For COc1ccc(OC)c(NC(=O)C2CC(C)=C(C)CC2C(=O)O)c1 (stereo not given) the results were HPGD block -17%.
Screening COc1ccc(CC2(C)OC(c3ccccc3)=NN2C(C)=O)cc1 (stereo not given) returned HPGD block -20%.

A draw from above in order of molar mass, falling.
CCC(C)(C)NC(=O)C(c1ccco1)N(C(=O)Cn1nnc2ccccc21)c1ccc2c(c1)OCO2 (stereo not given) was read as HPGD block -10%.
CC[C@@]12C=C(/C=C/c3ccccc3)[C@](CC)(C1)[C@H](c1ccccc1)CC2=O was read as HPGD block -3%.
NCC(c1ccccc1)(c1ccccc1)c1ccccc1 was read as HPGD block -1%.

Part of the list above in order of count of non-hydrogen atoms, highest first:
CCn1cc(C(=O)NCc2cccc(F)c2)c(=O)c2cc(F)c(N3CCN(C(=O)c4ccco4)CC3)cc21 was read as HPGD block inconclusive.
CCC(C)(C)NC(=O)C(c1ccco1)N(C(=O)Cn1nnc2ccccc21)c1ccc2c(c1)OCO2 (stereo not given) was read as HPGD block -10%.
CC1CCN(S(=O)(=O)c2ccc3c(c2)c(=O)c(C(=O)NCc2ccccc2Cl)cn3C)CC1 was read as HPGD block -10%.
`NC(=O)C1(N2CCCCC2)CCN(C(=O)c2ccc(C#CC3(O)CCCCC3)cc2)CC1` gave HPGD block 0%.
Cc1onc(-c2ccccc2Cl)c1C(=O)Nc1cnn(Cc2ccccc2)c1 was read as HPGD block -12%.
CC[C@@]12C=C(/C=C/c3ccccc3)[C@](CC)(C1)[C@H](c1ccccc1)CC2=O was read as HPGD block -3%.
`CC(C)(C)n1nnnc1CN(Cc1ccc(F)cc1)Cc1ccco1` gave HPGD block -1%.
For COc1ccc(NC(=O)NCCN2CCc3ccccc3C2)cc1 the results were HPGD block 0%.
Screening Cc1cccc(NC(=O)CCC(=O)N/N=C/c2ccco2)c1C returned HPGD block -12%.
For Cc1nc(NS(=O)(=O)c2cccs2)c2c3c(sc2n1)CCC3 the results were HPGD block -17%.
Screening NS(=O)(=O)c1ccc(NC(=O)CSc2ccccn2)cc1 returned HPGD block -29%.
`NC(=O)CN1CCOCCN(CC(N)=O)CCOCC1` gave HPGD block -6%.
For Cc1[nH]c2ccc(-c3n[nH]c(=S)n3C)cc2c1C the results were HPGD block inconclusive.
Screening Cc1ccc(CSc2nnnn2C)cc1 returned HPGD block -8%.

Remaining list, next part:
Screening Nc1nnc(SCc2ccccc2Cl)s1 returned HPGD block -7%.
CCCCOC(=O)C(C)c1c(C)[nH]c(=S)[nH]c1=O (stereo not given) was read as HPGD block -16%.
`CC(C)(C)CC(C)(C)c1cc(O)c(O)c(CN2CCCCC2)c1` gave HPGD block -23%.
O=C(N/N=C/c1ccc(Cl)cc1Cl)c1cccc(F)c1 was read as HPGD block -10%.
For CSCCC(N)C(=O)NC(CC(C)C)C(=O)NC(Cc1ccccc1)C(=O)O (stereo not given) the results were HPGD block -10%.
For O=C(Cc1ccccc1)N/N=C/c1ccc(OCC(=O)Nc2ccccc2)cc1 the results were HPGD block -3%.
Cn1c(Cn2cnc([N+](=O)[O-])n2)nnc1SCC(=O)Nc1cccc(Cl)c1 was read as HPGD block 2%.
Screening CC(=O)Nc1cc(C(F)(F)F)ccc1Oc1cccc(Br)c1 returned HPGD block -28%.
Screening C=CCSc1nc2c(c(=O)[nH]c(=O)n2C)n1CC returned HPGD block 14µM*.
For Cc1c(NC(=O)c2ccc3c(c2)OCO3)cccc1-c1nc2ccccc2o1 the results were HPGD block -21%.
Screening CNS(=O)(=O)c1cccc2nsnc12 returned HPGD block -6%.
`CCCNC(=O)CS(=O)Cc1nc(-c2cccc(OC)c2)oc1C` (stereo not given) gave HPGD block -9%.
Screening Cn1cc([N+](=O)[O-])c(C(=O)Nc2cc(Oc3ccccc3)cc([N+](=O)[O-])c2)n1 returned HPGD block -24%.
`Cc1ccccc1-n1c(-c2ccoc2C)n[nH]c1=S` gave HPGD block -13%.
COc1cc(-n2c(C)nc3cc(C(=O)N4CCOCC4)ccc32)cc(OC)c1OC was read as HPGD block 32µM*.
`O=C(O)c1ccc(C(=O)Nc2cccc3ccccc23)c(C(=O)O)c1` gave HPGD block -25%.
Screening O=C(NCc1ccco1)c1ccc(COCC(F)(F)C(F)F)cc1 returned HPGD block -21%.
Screening On1c(-c2ccco2)nc2c1CCc1nonc1-2 returned HPGD block -13%.
Screening COc1ccc(-n2nc(C(=O)Nc3ccc4c(c3)OCO4)c3ccccc3c2=O)cc1 returned HPGD block -11%.
`c1ccc(-c2nnc(SCCC3OCCCO3)o2)cc1` gave HPGD block -3%.
Screening CCN(CC)S(=O)(=O)c1ccc(Cl)c(NC(=O)CSc2nnc(-c3cccs3)o2)c1 returned HPGD block -11%.
`CCCNC(=O)Nc1cc(C)on1` gave HPGD block -9%.
`Cc1cc(-c2ccccc2)nc2cc(C(N)=O)nn12` gave HPGD block -25%.
`COc1cc(Cl)c(C)cc1NC(=O)COC(=O)c1cnc(C)cn1` gave HPGD block 0%.
Screening COC(=O)c1ccc(N2CCOCC2)c(F)c1 returned HPGD block -2%.
CCN(CC)C(c1ccc(F)cc1)c1nnnn1CC1CCCO1 (stereo not given) was read as HPGD block -5%.
Screening CC1=CC(C)(C)N(S(=O)(=O)c2ccc(F)cc2)c2ccccc21 returned HPGD block -2%.
For O=C(Oc1cccc2cccnc12)c1ccc(N2C(=O)C3C4CCC(C4)C3C2=O)cc1 (stereo not given) the results were HPGD block -9%.
`COc1cccc(OC)c1C(=O)Nc1ccc(N2CCN(S(C)(=O)=O)CC2)cc1` gave HPGD block -8%.
Screening Cc1nnc2sc(-c3ccco3)nn12 returned HPGD block -4%.
`CC1(C)Cc2nc(-c3ccccc3)n3cnnc3c2CO1` gave HPGD block -7%.
For CN(C)CC(=O)N1c2ccccc2CCc2ccc(NC(=O)c3ccc(N)cc3)cc21 the results were HPGD block -13%.
For CC(CC(=O)Nc1ccc2c(c1)OCCO2)c1ccccc1 (stereo not given) the results were HPGD block -13%.
CCCCOc1ccccc1P(=O)(O)CP(=O)(c1ccccc1)c1ccccc1 was read as HPGD block 0%.
`Cc1nn(C)c(C)c1CN(C)C(=O)c1cnn2c1NC(c1ccccc1)CC2C(F)(F)F` (stereo not given) gave HPGD block -10%.
`Cc1ccc(NC(=O)Cc2nc(CSc3nnc(-c4ccc5c(c4)OCO5)o3)cs2)cc1` gave HPGD block -8%.
`COC(=O)Nc1ccc(NC(C)=O)cc1` gave HPGD block -5%.
For Cc1noc(C)c1S(=O)(=O)N(C)CC(=O)Nc1ccc(F)cc1 the results were HPGD block -8%.
For COc1ccc(NC(=S)Nc2ncccc2C)c(OC)c1 the results were HPGD block -10%.
`CCOC(=O)N1CCN(C(=O)C2CCN(S(=O)(=O)c3cc(Cl)ccc3Cl)CC2)CC1` gave HPGD block -1%.
CC(NS(=O)(=O)c1ccc(OCC(=O)Nc2cccc([N+](=O)[O-])c2)cc1)c1ccccc1 (stereo not given) was read as HPGD block -9%.
COC(=O)CSc1nnc(CSc2nc(C)cc(C)n2)o1 was read as HPGD block 0%.
Cc1cc(C)c(S(=O)(=O)n2ccc3ccccc32)c(C)c1 was read as HPGD block -16%.
Screening CC(C)C[C@@H](CC(=O)N[C@H](CC(=O)N[C@@H]1CCNC[C@H]1C(=O)N[C@H](CC(=O)N[C@@H](CCC(=O)O)CC(=O)O)Cc1ccccc1)C(C)C)NC(=O)[C@@H]1CNCC[C@H]1N returned HPGD block -3%.
Screening O=c1[nH]c(C2CCCN(S(=O)(=O)c3ccc(F)cc3)C2)nc2c1nnn2Cc1ccccc1 (stereo not given) returned HPGD block 13µM*.
`O=C(NCCc1cccs1)C1CC(c2ccc([N+](=O)[O-])cc2)=NO1` (stereo not given) gave HPGD block -19%.
`NS(=O)(=O)c1ccc(CCNC2CC(=O)N(Cc3ccccc3)C2=O)cc1` (stereo not given) gave HPGD block -2%.
Screening O=C(NCC1CCCO1)C1CC(c2ccccc2Cl)=NO1 (stereo not given) returned HPGD block 20µM*.
For Cc1ccc(NC(=O)COC(=O)CCC(=O)c2ccc(C(C)(C)C)cc2)c([N+](=O)[O-])c1 the results were HPGD block -21%.
Screening CCc1ccc2c(c1)C(c1cccs1)=NNC(c1cccnc1)=N2 returned HPGD block -5%.
Cc1occc1C(=O)NCCc1ccc(Cl)cc1 was read as HPGD block -17%.
Screening N#Cc1cccc(NC(=O)c2nc(-c3ccccc3)n(-c3ccccc3)n2)c1 returned HPGD block -9%.
CCCn1nc2cc(C(=O)NCCCCc3ccccc3)ccc2c1OCC was read as HPGD block inconclusive.
Screening CCN(CC)CCn1c(-c2ccccc2)nc2c(NCCO)nc(C)nc21 returned HPGD block inconclusive.
`O=C(c1ccccc1)[C@H](Nc1ccc2ccccc2c1)c1ccccc1` gave HPGD block -13%.
Screening COCCCN1CCN(C2Cc3ccccc3Sc3ccc(Cl)cc32)CC1 (stereo not given) returned HPGD block -22%.
For c1ccc(-c2nc(-c3cccs3)c(NC3CCCCC3)o2)cc1 the results were HPGD block -10%.
Screening O=[N+]([O-])c1ccc(C(=S)N2CCN(Cc3ccccc3)CC2)cc1 returned HPGD block -22%.
Cc1oc2c(cc(NS(=O)(=O)c3ccc4c5c(cccc35)C(=O)N4)c3ccccc32)c1C(=O)OC(C)C was read as HPGD block -11%.
Screening CCN1/C(=C/c2ccc3cc(C)ccc3[n+]2CC)Sc2ccccc21 returned HPGD block -9%.
For CC(C)C(=O)N=C1NC(=O)CS1 the results were HPGD block 1%.
For CCC(=O)NC(=S)Nc1ccc(-c2nc3ccccc3s2)cc1 the results were HPGD block -2%.
Screening COCCCNC(=O)Cn1nc(-c2ccccc2OC)ccc1=O returned HPGD block -3%.
`COc1ccc(C(c2nnnn2CCc2ccccc2)N2CCN(C)CC2)cc1OC` (stereo not given) gave HPGD block -9%.
For COC(=O)c1ccc(OC)c(CSc2nnc(COc3ccc(Cl)cc3)o2)c1 the results were HPGD block -20%.
Screening CCOC(=O)/C(C#N)=C/C1=C(N2CCCC2)CC(C)(CC)OC1 (stereo not given) returned HPGD block -17%.
O=c1c(=O)n(O)c2ccccc2n1O was read as HPGD block -8%.
CCCCn1c(N)c(N(CC(C)C)C(=O)CN(C)Cc2cccc(OC)c2)c(=O)[nH]c1=O was read as HPGD block -15%.
Screening O=C(/C=C/NCc1ccc(F)cc1)c1ccccc1 returned HPGD block -12%.
COc1ccc(/C=C/C(=O)OCC(=O)Nc2ccc(Cl)c(S(=O)(=O)N(C)C)c2)cc1OC was read as HPGD block inconclusive.
`O=c1[nH]nc(Cc2ccccn2)c2ccccc12` gave HPGD block -2%.
